Bioassay records as filed in PubChem BioAssay.
RE007 growth inh: less growth of the S. pombe RE007 Vpr strain | S. pombe RE007 Vpr strain, BacTiter-Glo ATP luminescence, 24 h; control for the full effect not named in the record | Potency, µM (highest dose often 92.2 µM), without a hit: at the highest dose activity change, negative = less growth | 360,000 tested, 0.21% active; active = well fitted falling curve with a large enough effect; inconclusive = small, poorly fitted or top-dose-only effect; inactive = no such curve, though single readings can be large or run the other way;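 also: nearly all actives have a fitted effect of over 50% in size; the assay follows cell death caused by Vpr and the record does not say whether a fall means rescue or toxicity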
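Fission yeast strain RE007, carrying one chromosomally integrated HIV-1 vpr copy, was seeded at OD 0.01 in PMG+AL medium with 23 nL pinned compound. After 24 h at 30 °C and 99% humidity, viability was read by BacTiter-Glo luminescence.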
StopGo reporter: FMDV 2A StopGo reporter, luciferase signal; human cells with a luciferase reporter of 2A StopGo recoding; control for the full effect not named in the record; Potency, µM (highest dose often 57.9 µM), for the others: at the top dose signal change, negative = less light; 410,000 tested, 1.2% active; AID 1159524; active = well fitted falling curve with a large enough effect; inconclusive = small, poorly fitted or top-dose-only effect; inactive = no such curve, though single readings can be large or run the other way; tested in HEK293T cells; also: nearly all actives have a fitted effect of over 45% in size; luciferase light after 4 h
An asterisk follows results filed as active; ? = inconclusive; [ ] = dose if it differs, or a comment. % is scaled to controls: 0 for no effect and ±100 for the full control effect; potency is read from the fitted curve at half-maximal effect.

SMILES | RE007 growth inh | StopGo reporter
O=C(CN1CCCc2ccccc21)Nc1cccc(S(=O)(=O)N2CCCC2)c1 | -8% | 1%
Fc1cc(Cl)cc2ccc(-c3ccccc3)nc12 | -25% | 45%[activator]
O=C(COc1ccc(Cl)cc1Cl)NCCN1CCCC1 | 2% | -7%
O=C(c1c(F)cccc1Cl)N(Cc1ccco1)C1CCS(=O)(=O)C1 (stereo not drawn) | -8% | -22%
CC1(C(=O)NS(=O)(=O)C2CC2)CCCN(C(=O)Cc2ccc(F)cc2)C1 (stereo not drawn) | 7% | -5%
Cc1ccc(C(O)(C(=O)OC(C)C)C(O)c2ccc(F)cc2)cc1 (stereo not drawn) | 12% | 44%[activator]
CC1COCC(C)N1C(=O)c1cccnc1 (stereo not drawn) | 8% | -8%
C=CCNc1nc2cc(-c3ccc(C(=O)N4CCOCC4)cc3)sc2c(=O)n1C | 1% | 34%[activator]
CCCn1c(SC(C)C(=O)NC2CCCC(C)C2C)n[nH]c1=O (stereo not drawn) | 13% | -6%
COc1ccc(-c2ccc(C(=O)Nc3cccc(N(C)C)c3)c3occc23)c(C)c1 | -7% | 26%
COC(=O)[C@]12CCCCC=C1N(Cc1ccc3c(c1)OCO3)C(=O)[C@H](CC(=O)N1CCSCC1)C2 | -4% | 2%
COc1nccc(NCc2ccccc2)c1C#N | 6% | 19%
CC(C)c1ccc(Oc2cccc3c2S(=O)(=O)N(C2CCCC2)CC(COCc2ccccc2)O3)cc1 (stereo not drawn) | -14% | 4%
O=C(NCc1ccccc1)c1cc(C2CCCCN2C(=O)CCc2ccccc2)on1 (stereo not drawn) | 3% | 11%
COc1cc(OCc2ccc(C)cc2)ccc1CNC[C@H]1O[C@@H](n2cnc(C(N)=O)n2)[C@H](O)[C@@H]1O | -8% | 32%[activator]
Cn1cc(-c2csc(C(C)(O)c3cccnc3)n2)cn1 (stereo not drawn) | 6% | -8%
COCCN1C(=O)CCC1(C)C(=O)Nc1c(C)cccc1C (stereo not drawn) | 5% | -6%
CCCn1c(=N)n(CC(=O)c2ccc(OCC(=O)OC)cc2)c2ccccc21 | -4% | -20%
COc1ccc(Cl)cc1-c1cc(C(=O)Nc2ccc(C)c(NS(C)(=O)=O)c2)[nH]n1 | 8% | 32µM*
Cc1nn(C2CCS(=O)(=O)C2)c(C)c1CN(C)C(=O)c1ccc(F)cc1 (stereo not drawn) | -4% | -16%
O=C(N/C(=C/c1cccc(Br)c1)C(=O)N1CCCCC1)c1ccco1 | 0% | -4%
CC(C)NC(=O)C1(C)CCN1C(=O)c1cccc(F)c1 (stereo not drawn) | 0% | -14%
CC1(c2nc3ccccc3[nH]2)c2ccccc2C(=O)N1Cc1ccccc1 (stereo not drawn) | 0% | 6%
COc1ccc(-c2noc3c2-c2nc(-c4ccc(Br)cc4)sc2CC3)cc1 | 7% | -10%
O=C(NCC1CC1)C1Cc2c(-c3ccc4c(c3)OCO4)ccnc2O1 (stereo not drawn) | -7% | -16%
Other records follow:
SMILES | RE007 growth inh | StopGo reporter
CC(=O)c1cccc(-c2ccnc3c2CC(C(=O)NC(C)C)O3)c1 (stereo not drawn) | -10% | -9%
Cc1ncoc1C(=O)NCC1=C(c2ccc(S(C)(=O)=O)cc2)C[C@@H]2CC[C@H]1N2CCOc1ccccc1 | 2% | -8%
O=C(O)c1cccc(-c2csc(C(O)c3ccccc3)n2)c1 (stereo not drawn) | 25% | -19%
COC(=O)[C@@]1(C(C)C)N=C(c2cc(OC)c(OC)c(OC)c2)[C@]2(O1)C(=O)N(C)c1ccc(Cl)cc12 | 27% | -22%
Cc1ccccc1S(=O)(=O)NC(=O)C1(C)CCN1C(=O)C1(c2ccccc2)CCCC1 (stereo not drawn) | -2% | 15%
NC(=O)CCC(C(=O)O)N1C(=O)C2C3CCC(C3)C2C1=O (stereo not drawn) | 1% | -9%
CCc1cnc(Nc2nc(C(N)Cc3ccc(F)cc3)cs2)nc1 (stereo not drawn) | -8%[18.4 µM] | -14%
COC(=O)c1ccc(Cn2c(C)c(C(=O)Nc3cccc(Oc4ccccc4)c3)sc2=O)o1 | -3%[18.4 µM] | ?
Nc1ccc(C#Cc2ccc3oc4ccccc4c(=O)c3c2)cc1 | 7% | 50%[activator]
COc1ccc(-c2cc3nc(NCC4CCCCC4)n(C)c(=O)c3s2)cc1OC | 3% | -26%
O=C(Cc1coc2cc(O)ccc12)N1CCN(S(=O)(=O)c2ccc(Br)cc2)CC1 | 2% | ?
COc1ccc(CNC(=O)c2cn(Cc3ccccc3F)c(=O)s2)cc1 | 3%[18.4 µM] | -11%
CC(=O)NCCc1ccc(C(=O)COC(=O)c2cccs2)cc1 | 4% | 55%[activator]
O=C(NCCN1CCC(n2c(=O)[nH]c3ccccc32)CC1)c1c(F)cccc1F | -8% | -24%
CN(C(=O)c1cccc(NC(=O)Cc2ccc(NC(=O)C3CCN(C(=O)c4ccccc4)CC3)cc2)c1)C1CCCCC1 | -4% | -17%
C[C@@H]1CN([C@@H](C)CO)S(=O)(=O)c2ccc(Br)cc2O[C@H]1CN(C)C(=O)c1cccc(F)c1 | 13% | -29%
Cc1ccc([C@H]2N[C@]3(CCCN(Cc4ccco4)C3=O)[C@H]3C(=O)N(Cc4ccccc4)C(=O)[C@@H]23)cc1 | 4% | -12%
CC(C)=CCc1cc(-c2oc3cc(O)cc(O)c3c(=O)c2O)ccc1O | 4% | 3%
CC1CCCCC12NC(=O)N(CC(=O)Nc1ccc3c(c1)OCO3)C2=O (stereo not drawn) | 9% | -15%
O=C(NC1CC1)c1ccccc1NC(=O)c1ccccc1OC(F)F | 23% | -1%
COc1cccc(C(C)(O)c2nc(-c3ccc(C)c(C)c3)cs2)c1 (stereo not drawn) | ? | ?
Cc1ccc(Cc2c(-c3ccccc3)nc3ccc(Cl)cn23)cc1 | -22% | -2%
CCOC(=O)C1(C)CCN1C(=O)c1ccc(Cl)nc1 (stereo not drawn) | 3%[18.4 µM] | -7%
COc1ccc(NC(=O)c2cc(-c3cc(Cl)ccc3C)n[nH]2)c(OC)c1 | -16% | -13%
CC(C)c1cc(Cn2c3ccccc3c(=O)n2C(C)C)on1 | 0% | -25%

19 structures already listed, sorted by SMILES length, lowest first:
SMILES | RE007 growth inh | StopGo reporter
CCOC(=O)C1(C)CCN1C(=O)c1ccc(Cl)nc1 (stereo not drawn) | 3%[18.4 µM] | -7%
CC(C)c1cc(Cn2c3ccccc3c(=O)n2C(C)C)on1 | 0% | -25%
Nc1ccc(C#Cc2ccc3oc4ccccc4c(=O)c3c2)cc1 | 7% | 50%[activator]
O=C(NC1CC1)c1ccccc1NC(=O)c1ccccc1OC(F)F | 23% | -1%
Cc1ccc(Cc2c(-c3ccccc3)nc3ccc(Cl)cn23)cc1 | -22% | -2%
COc1ccc(CNC(=O)c2cn(Cc3ccccc3F)c(=O)s2)cc1 | 3%[18.4 µM] | -11%
COc1cccc(C(C)(O)c2nc(-c3ccc(C)c(C)c3)cs2)c1 (stereo not drawn) | ? | ?
CC1CCCCC12NC(=O)N(CC(=O)Nc1ccc3c(c1)OCO3)C2=O (stereo not drawn) | 9% | -15%
COc1ccc(-c2cc3nc(NCC4CCCCC4)n(C)c(=O)c3s2)cc1OC | 3% | -26%
COc1ccc(NC(=O)c2cc(-c3cc(Cl)ccc3C)n[nH]2)c(OC)c1 | -16% | -13%
O=C(NCCN1CCC(n2c(=O)[nH]c3ccccc32)CC1)c1c(F)cccc1F | -8% | -24%
O=C(Cc1coc2cc(O)ccc12)N1CCN(S(=O)(=O)c2ccc(Br)cc2)CC1 | 2% | ?
Cc1ccccc1S(=O)(=O)NC(=O)C1(C)CCN1C(=O)C1(c2ccccc2)CCCC1 (stereo not drawn) | -2% | 15%
COC(=O)c1ccc(Cn2c(C)c(C(=O)Nc3cccc(Oc4ccccc4)c3)sc2=O)o1 | -3%[18.4 µM] | ?
Cc1ncoc1C(=O)NCC1=C(c2ccc(S(C)(=O)=O)cc2)C[C@@H]2CC[C@H]1N2CCOc1ccccc1 | 2% | -8%
C[C@@H]1CN([C@@H](C)CO)S(=O)(=O)c2ccc(Br)cc2O[C@H]1CN(C)C(=O)c1cccc(F)c1 | 13% | -29%
CN(C(=O)c1cccc(NC(=O)Cc2ccc(NC(=O)C3CCN(C(=O)c4ccccc4)CC3)cc2)c1)C1CCCCC1 | -4% | -17%
COC(=O)[C@@]1(C(C)C)N=C(c2cc(OC)c(OC)c(OC)c2)[C@]2(O1)C(=O)N(C)c1ccc(Cl)cc12 | 27% | -22%
Cc1ccc([C@H]2N[C@]3(CCCN(Cc4ccco4)C3=O)[C@H]3C(=O)N(Cc4ccccc4)C(=O)[C@@H]23)cc1 | 4% | -12%

(cont.)
SMILES | RE007 growth inh | StopGo reporter
CC1(C(=O)NCc2cccs2)Cc2c(-c3ccc(C(N)=O)cc3)ccnc2O1 (stereo not drawn) | -19% | -16%
CCC(c1nc2ccccc2[nH]1)N(C(=O)Cc1cc(OC)cc(OC)c1)c1ccc(N2CCOCC2)cc1 (stereo not drawn) | -5% | -5%
O=C(NCCCN1CCOCC1)c1cccc(S(=O)(=O)N2CCc3ccccc32)c1 | -8% | 0%
CCOC(=O)c1ccc(NS(=O)(=O)c2c(N)n(C)c(=O)n(C)c2=O)cc1 | 3% | 0%
CSCCC(c1nnnn1-c1ccc2c(c1)OCCO2)N1CCC2(CC1)C(=O)NCN2c1ccccc1 (stereo not drawn) | -5% | 3%
COCCNc1nc2c(c(=O)n(C)c(=O)n2C)n1CCCc1ccccc1 | 7% | -28%
CCCCCCCCN1C(=O)[C@H](CC(=O)NCCCOC)C[C@@]2(C(=O)OC)CC(C)(C)CC=C12 | -7% | -14%
CC(C)C[C@H]1CN([C@@H](Cc2ccc(O)cc2)CN2CCC[C@H]2CN2C(=O)C(=O)NC[C@@H]2Cc2ccccc2)C(=O)C(=O)N1CC1CCCCCC1 | -3% | -6%
Cc1ccc(-c2cc(NC=O)c3ncc(-c4cccc(C(=O)N(C)C)c4)n3c2)cc1 | -13% | -27%
OCc1ccccc1-c1nc(NCc2ccccc2)nc2ccsc12 | 17% | -2%
CONC(=O)c1ccc(-c2cccc3nccn23)cc1 | -1%[18.4 µM] | -1%
O=c1ncccn1C1OC(CO)C(O)C1O (stereo not drawn) | -5% | -11%
C[C@@H]1CN([C@@H](C)CO)C(=O)CCCn2nncc2CO[C@H]1CN(C)Cc1ccc(Cl)c(Cl)c1 | -6% | -13%
CCCCCC(=O)N1C[C@H](n2cc(C3CC3)nn2)[C@@H](O)C[C@@H]1c1ccccc1 | 4% | -16%
C[C@H]1CN([C@@H](C)CO)C(=O)c2cc(Br)cnc2O[C@@H]1CN(C)S(=O)(=O)c1cn(C)cn1 | 8% | -20%
Cc1cc(C)n2c(Nc3ccc4c(c3)OCCO4)c(CC(C)C)nc2n1 | ? | -14%
C[C@H]1CC[C@@]2(O[C@H](CCO)C[C@H](O)[C@H]2O)O1 | -9% | -6%
O=C(CCN1C(=O)c2ccccc2C1=O)c1cnc[nH]1 | 5%[18.4 µM] | -1%
CC(C)[C@H](NC(=O)c1ccc(Cl)cc1Cl)C(=O)OCc1nc2ccsc2c(=O)[nH]1 | 2% | -8%
CCc1nc2ccc(C(=O)NCCCN3CCCC3=O)cn2c1N(CC)CCN(C)C | -14% | -8%
CCCCCc1c(-c2cccc(F)c2)ncn1CCc1ccccc1OC | ? | 22µM*
CC(C)(C)NC(=O)C(C1CC1)n1c(=O)c(-c2cc3ccccc3[nH]2)nc2ccccc21 (stereo not drawn) | 4% | -27%
Cc1cc(Nc2ccccc2C(=O)O)n2ncnc2n1 | 8% | -9%
OC(c1cc(F)cc(Cl)c1)c1ncc(-c2ccc(Cl)cc2)[nH]1 (stereo not drawn) | -18%[18.4 µM] | 3%
COc1ccc(-c2coc3c(C(=O)NCC4CC4)cccc23)c(C)c1 | 11% | ?
Next section:
SMILES | RE007 growth inh | StopGo reporter
COc1ccc(CNC(=O)C2Cc3c(-c4cccc(C(C)=O)c4)ccnc3O2)cc1OC (stereo not drawn) | -3% | 0%
CC(=O)c1cccc(NC(=O)C2(C)Cc3c(-c4ccccc4)ccnc3O2)c1 (stereo not drawn) | -2% | ?
COC(=O)c1ccc2nc(-c3ccc(F)cc3)c(Cc3ccccc3OC)n2c1 | -11% | -1%
COc1ccccc1CNc1nc(NCCOc2ccccc2)c2sccc2n1 | -13% | -3%
COc1ccc(C(O)c2nc(-c3cccc4cccnc34)cs2)cc1 (stereo not drawn) | -8%[18.4 µM] | 8%
CC1(C)CC(=O)C=C(c2ccc(-c3cccc4c3sc3ccccc34)cc2)C1=O | -7% | -1%
CCCCN(C)c1c(C)nc2ccc(C(=O)N(C)Cc3ccco3)cn12 | 3%[18.4 µM] | -22%
COc1ccccc1C1NC(=O)NC(C)=C1C(=O)OCC1CCCCC1 (stereo not drawn) | 18% | ?
C=CCN(C(=O)CSc1nc2ccsc2c(=O)n1Cc1ccc(C(=O)O)cc1)c1ccccc1 | 5% | -17%
O=C(Nc1ccccc1)OCC(CN1CCCCC1)OC(=O)Nc1ccccc1 (stereo not drawn) | -16%[18.4 µM] | -11%

These rows are one share of the data; count on the stated rates, not on these rows.
